# High-throughput results deposited in PubChem BioAssay by several laboratories.
# CBX7 inh – CBX7 chromodomain binding inhibitors, primary screen, biochemical, AlphaScreen. normalised signal (fraction of DMSO) (concentration not given with the values). actives 1.1% (n = 66,000). AlphaScreen His6-CBX7 / biotin-H3K27me3 peptide binding; active compounds read low. Chromobox protein homolog 7 (Homo sapiens), O95931; in the data active = normalised signal below about 0.5;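 also: 100 nL library stock added to about 20 µL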
# Target sequence (O95931 whole entry, looked up): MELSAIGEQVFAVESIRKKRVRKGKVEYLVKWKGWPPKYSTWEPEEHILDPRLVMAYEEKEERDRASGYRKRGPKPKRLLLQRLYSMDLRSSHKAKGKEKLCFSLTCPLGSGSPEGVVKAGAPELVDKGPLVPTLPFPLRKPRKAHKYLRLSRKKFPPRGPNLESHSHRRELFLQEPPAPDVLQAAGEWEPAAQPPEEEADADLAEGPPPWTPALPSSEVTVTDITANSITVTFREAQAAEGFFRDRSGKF
# CBX7 inh z-score – second read-out of CBX7 inh, no call of its own (marks repeat the call); z-score; measured here: z-score of CBX7 signal; some inactives read as strong as hits; reference of the scale not given here;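 same signal on another scale; lower means less binding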
# Numbers without * were called inactive. Some of the compounds tested; rates above refer to the full screens.
Compound	CBX7 inh z-score	CBX7 inh
COc1ccccc1Nc1nc(-c2ccccc2Cl)c2cc(Br)ccc2n1	7.03	1.42
CCOc1ccc2nc(N3CCCC(C(=O)N4CCN(c5ncccn5)CC4)C3)sc2c1 (stereo not given)	-1.6	0.943
CCOc1ccc(C(=O)c2cn(Cc3ccc(F)cc3)c3ccc(OC)cc3c2=O)cc1	-2.29	0.76
CCCc1c2c(nn1-c1cc(Cl)ccc1OC)CC(c1ccccc1)CC2=O (stereo not given)	1.33	1.07
CNC(=O)c1cc(Sc2nnc(C)s2)nc2ccccc12	0.456	1.03
Cc1c(C(=O)Nc2nc3ccccc3s2)sc2ncn(Cc3cccc(F)c3)c(=O)c12	0.462	1.07
Cc1ccc(NC(=O)N(CCC(C)C)C2CCN(C(C)C)CC2)cc1C	1.44	1.03
Fc1ccc(-c2cn3ccccc3n2)cc1	-0.469	0.957
COc1ccc(OC)c(CNC(=O)CCc2nc(-c3ccccc3F)no2)c1	-0.72	0.976
CC1CCCC(NC(=O)c2cc(=O)[nH]c3ccc(S(=O)(=O)N4CCCC4)cc23)C1C (stereo not given)	-0.716	0.937
Cc1cccc(OCCCC(=O)Nc2ccc(N3CCOCC3)cc2)c1	-3.13	0.883
CC(=O)c1coc2ccc(OCCN3CCCCC3)cc12	-0.0665	0.996
CC(C)Oc1ccc(C(=O)Nc2c3c(nn2-c2ccc(Cl)cc2)CS(=O)(=O)C3)cc1	-0.523	0.92
O=C(NCc1ccc(F)cc1)c1cc2nc(-c3ccccc3)cc(C(F)(F)F)n2n1	6.85	1.17
COc1ccccc1CNC(=O)c1ccc2c(c1)N(Cc1ccc(Cl)cc1)C(=O)CS2	0.401	1.01
Cc1ccc(C(=O)NCCc2cc3ccc(C)c(C)c3[nH]c2=O)cc1C	1.33	1.07
C#CCOc1ccc2c(c1)c(C(=O)OCC)c(C)n2-c1ccc(OC)cc1	-0.65	0.815
O=C(C1CCC(CNS(=O)(=O)c2cccc3cccnc23)CC1)N1CCCC1 (stereo not given)	-0.0758	0.997
Cc1ccccc1Nc1c(-c2cccs2)nc2ccc(Cl)cn12	0.109	1.08
COC1=Cc2c(ccc3ccc(=O)oc23)OC1(C)C	-0.531	0.981
O=C1CC(N2CCC(Cc3ccccc3)CC2)C(=O)N1CC(c1ccccc1)c1ccccc1 (stereo not given)	0.952	1.13
O=C(Nc1ccc(F)c(Cl)c1)c1cnc2sccn2c1=O	-1.64	0.862
Cc1ccc(OCCn2c(SCC(N)=O)nc3ccccc32)cc1	-0.906	0.775
CCCCN(CC)S(=O)(=O)c1ccc2[nH]c(=O)cc(C(=O)NCCN(C)Cc3ccccc3)c2c1	-0.18	0.995
COc1ccc(NC(=O)c2cc3nc(-c4ccc(Cl)cc4)cc(C(F)(F)F)n3n2)cc1OC	-1.51	0.886
O=C1c2ccccc2C2=c3c1cccc3=CC(c1ccccc1)N=N2 (stereo not given)	-5.62	0.797
O=c1c2ccccc2nc(/C=C/c2ccc(OCc3ccc(Cl)c(Cl)c3)cc2)n1-c1cccc(F)c1	5.33	1.11
Cc1cccc(N2CCN(C(=O)Cn3nc(Cc4ccncc4)c4ccccc4c3=O)CC2C)c1 (stereo not given)	-0.209	0.991
O=C(O)c1cc(-c2ccc(Br)cc2)nc2ccccc12	-2.81	0.858
COc1ccc(-c2nc(Cn3c(SCc4ccc(C)cc4)nc4ccncc43)c(C)o2)cc1	-2.23	0.843
Cc1ccc(C2Nc3ccc(C(=O)c4ccccc4)cc3NC3=C2C(=O)CC(C)(C)C3)o1 (stereo not given)	-0.581	0.981
FC(F)(F)c1cc(-c2ccco2)nc(-n2cc(Cl)cn2)n1	0.709	1.02
CCCCNC(=O)Cn1ccc2ccccc2c1=O	0.576	1.06
CC(C)CN(CCCNC(=O)CN1N=C(c2ccc(Cl)cc2)CCC1=O)CC(C)C	1.77	1.11
CC(C)Oc1ccccc1NC(=O)CSc1nnc(-c2ccco2)n1-c1ccccc1	-7.54	0.698
Cc1cc2nc(Nc3nc(-c4ccccc4)cc(=O)[nH]3)nc(C)c2cc1C	0.295	1.04
COC(=O)CNC(=O)CCCNC(=O)Cn1cnc2sc(C)c(C)c2c1=O	-1.62	0.921
COCCCNC(=O)c1c[nH]c2ccc(S(=O)(=O)Nc3cccc(C(F)(F)F)c3)cc2c1=O	2.82	1.11
COc1ccc(S(=O)(=O)CCc2ccncc2)cc1	0.0492	1.01
CCC(C)NC(=O)c1ccc2nc(-c3ccc(OC)c(OC)c3)c(-c3ccc(OC)c(OC)c3)nc2c1 (stereo not given)	0.444	1.16
Cc1c(C(=O)N2CCC(C)CC2)sc2ncnc(N3CCN(c4ccccc4F)CC3)c12	0.905	1.07
O=C(c1cc2n(n1)C(C(F)(F)F)CC(c1ccccc1)N2)N1CCN(Cc2ccccc2)CC1 (stereo not given)	-2.04	0.755
Nc1nonc1-n1nnc(C(=O)c2ccccc2)c1-c1ccccc1	-0.0633	0.995
CCCCOc1ccc(NC(=O)c2cc3c(n(-c4ccccc4)c2=O)CCCC3=O)cc1	-0.0563	0.998
COc1ccc(-c2nn(C)c(=O)c3ccccc23)cc1NC(=O)c1ccc(Cl)cc1	-0.257	0.993
CC(C)N(Cc1nc(-c2ccccc2)no1)C(=O)Cc1ccccc1	0.415	1.02
CCc1ccc(NC(=O)CN(C)S(=O)(=O)c2cccc3cccnc23)cc1	-2.28	0.808
Cc1cc2ccccc2c(=O)n1CC(=O)NCC(=O)Nc1ccc(Oc2ccccc2)cc1	2.26	1.22
COc1ccc(C2C3=C(CCCC3=O)Nc3ccccc3N2C(=O)c2ccccc2)cc1OC (stereo not given)	-0.016	0.999
O=C(Nc1ccccc1C(=O)O)c1cc(S(=O)(=O)N2CCOCC2)cs1	1.28	1.07
Cc1onc(-c2ccccc2Cl)c1C(=O)Nc1ccc2ccccc2c1	-0.198	0.974
Cc1cc(C)n(-c2nn3c(C(F)(F)C(F)(F)F)nnc3c3ccccc23)n1	1.78	1.04
CCOc1ccc(NC(=O)c2cnc(Nc3ccc(OC)cc3)c3ccccc23)cc1	-0.591	0.971
Cc1ccc(-c2csc(NC(=O)N3CCOCC3)n2)cc1	-1.2	0.955
COc1ccc(NC(=O)c2cn(-c3ccc(F)cc3F)c(=O)c3ccccc23)c(OC)c1	2.15	1.06
O=c1c2ccccc2nc(N2CCN(Cc3ccc4c(c3)OCO4)CC2)n1CCc1ccccc1	-0.72	0.653
CCOc1ccccc1CNC(=O)CC(C(=O)N1CCc2ccccc21)n1ccnc1 (stereo not given)	-8.07	0.676
CCOc1ccc(C(=O)Nc2cc(-c3nc4ncccc4o3)ccc2Cl)cc1Cl	1.1	1.15
CCCc1nnc(NC(=O)CSc2ncc(-c3ccccc3)nn2)s1	-1.12	0.896
CCC1Oc2ccccc2N(CC(=O)NCCCN2CCCC2)C1=O (stereo not given)	2.07	1.08

# (more compounds)
Compound	CBX7 inh z-score	CBX7 inh
O=C(NCCCN1CCCC1=O)c1ccc2c(c1)ncn2C1CCCCC1	2.75	1.07
Cc1c(C(=O)N2CCCCCC2)sc2ncnc(N3CCN(c4ccccc4F)CC3)c12	1.74	1.14
Cc1ccc2nc(-c3ccncc3)c(Nc3ccc4c(c3)OCCO4)n2c1	-0.0684	0.95
O=C(NC1CC1)c1c[nH]c2ccc(S(=O)(=O)Nc3cccc(C(F)(F)F)c3)cc2c1=O	1.5	1.06
O=C(NCc1cccnc1)c1cc(-c2ccc3c(c2)OCO3)nc2ccccc12	0.187	1.01
Cc1ccccc1NC(=O)c1cc2sccc2n1Cc1ccc(Cl)cc1	-1.35	0.951
COC(=O)c1sc2cnccc2c1-n1cccc1	-1.46	0.945
CC(=O)Nc1ccc2nc(NC(=O)COc3ccc(Cl)cc3)sc2c1	-0.458	0.984
O=C(Cn1nc(-c2ccc(Cl)cc2)ccc1=O)NCCN1CCCC1	1.77	1.05
CCc1ccc(NC(=O)C2CCCN2S(=O)(=O)c2ccc3c(c2)n(C)c(=O)c(=O)n3C)cc1 (stereo not given)	1.86	1.2
O=C(Nc1cccc(F)c1)Nc1ccc2snnc2c1	2.42	1.06
O=C(Nc1nc2c(s1)CCCC2)C(=O)c1c(-c2ccccc2)cc2ccccn12	-5.32	0.58
COc1ccc(CCNC(=O)C2CCCN(c3nnc(-n4cccc4)s3)C2)cc1OC (stereo not given)	0.0858	1
Cc1ccc2c(c1)C(c1ccccc1)N(C(=O)c1cccc(C(F)(F)F)c1)CC(=O)N2 (stereo not given)	0.1	1.07
Cc1ccc(OCCSc2nc3ccccc3n2CCO)cc1	0.379	1.11
O=C(NCc1ccccc1)c1ccc2c(c1)N(Cc1ccc(Cl)cc1)C(=O)c1ccccc1S2=O (stereo not given)	0.904	1.02
CCOC(=O)c1cnc2c(Cl)cccc2c1Nc1cccc(C(C)=O)c1	0.0685	1.01
COc1ccc(Nc2cc(C(=O)NCc3ccccc3)c3ccccc3n2)c(OC)c1	-4.3	0.719
COc1ccc(CCNC(=O)CSc2nnc(CNC(=O)c3ccccc3F)o2)cc1OC	1.34	1.05
COc1cccc(CNC(=O)Cn2ncc3c2-c2ccccc2OC3)c1	1.28	1.22

# Whole records, quoted from the list. Order of screens: CBX7 inh z-score, CBX7 inh
# Profile of `COc1ccc(Nc2cc(C(=O)NCc3ccccc3)c3ccccc3n2)c(OC)c1` → -4.3, 0.719
# Profile of `COc1ccc(CCNC(=O)CSc2nnc(CNC(=O)c3ccccc3F)o2)cc1OC` → 1.34, 1.05

# Later entries.
Compound	CBX7 inh z-score	CBX7 inh
COc1ccc(NC(=O)CCNS(=O)(=O)c2ccc3c(c2)CCC(=O)N3)cc1	0.209	1.01
O=C(Nc1nnc(-c2ccc(Cl)cc2Cl)s1)c1ccccc1F	0.534	1.03
O=C(NCCCN1CCOCC1)c1ccc2c(c1)N(Cc1ccc(Cl)cc1)C(=O)c1ccccc1S2=O (stereo not given)	1.17	1.03
CC(C)c1ccc(-c2csc(NC(=O)c3cccc4ccccc34)n2)cc1	0.831	1.05
CC(=O)N1CCc2cc(S(=O)(=O)N3CC(=O)N(CCc4ccccc4)C(=O)C3)ccc21	-0.702	0.826
Cc1c(C(=O)NCCN(C)C)oc2ccc(S(=O)(=O)N3CCCCCC3)cc12	1.91	1.11
CCCc1sc(Nc2ccccc2Cl)nc1-c1ccc(Cl)c(Cl)c1	0.398	1.01
CCc1ccc(-c2nc(CN3CCC(C(=O)NC4CC4)CC3)c(C)o2)cc1	0.0472	1.03
COc1ccc(Cn2c(=O)[nH]c3cc(C(=O)NCc4cccc(Cl)c4)ccc3c2=O)cc1	-0.183	0.993
COc1ccccc1N1CCN(c2cc(=O)n(-c3ccc(Br)cc3)c(=O)[nH]2)CC1	1.01	1.06
COc1cc(N2C(=O)C3C4C=CC(C4)C3C2=O)nc(OC)n1 (stereo not given)	1.17	1.17
COC(=O)c1ccc2nc(NC(=O)CSc3nc4ccccc4o3)sc2c1	-0.0508	0.998
O=C1CC(C(=O)N2CCN(c3ccc(F)cc3)CC2)CN1CCc1ccccc1 (stereo not given)	1.14	1.02
CCOC(=O)c1ccc2c(c1)N(Cc1ccc(F)cc1Cl)C(=O)c1ccccc1S2	-0.302	0.976
O=C(Nc1nc(-c2ccc(Cl)cc2)cs1)c1ccc2c(c1)OCO2	1.63	1.08
Cc1ccc(S(=O)(=O)NC(=O)Nc2nc(-c3ccccc3)cs2)cc1	-0.0567	0.967
CCN(CC)S(=O)(=O)c1ccc2c(c1)N(CC(=O)NCCc1c[nH]c3ccccc13)C(=O)CO2	-3.14	0.933
Cc1ccccc1Nc1c(-c2cccc(Br)c2)nc2cccc(C)n12	0.429	1.04
Cc1ccc2c(c1)C(c1ccc(F)cc1)N(C(=O)c1ccc(S(=O)(=O)N3CCCC3)cc1)CC(=O)N2 (stereo not given)	-1.94	0.859
CC(NS(=O)(=O)c1ccc2c(c1)CCN2C(=O)CCCC(=O)O)c1ccccc1 (stereo not given)	0.965	1.14
Cc1c2cn[nH]c(=O)c2c(C)n1Cc1ccccc1	0.0552	1.01
COC(=O)CSc1nnc(Cc2cc(=O)[nH]c(=O)[nH]2)n1-c1ccc(Cl)cc1	-2.56	0.833
O=C(CSc1nnc(CNC(=O)c2cccs2)o1)Nc1cccc(Cl)c1	2.62	1.08
O=C(c1ccccc1)N1CCN(c2nc(-c3ccccc3)c3ccccc3n2)CC1	3.19	1.32
COc1cccc(-n2ccnc2SCC(=O)Nc2ccccc2)c1	-0.323	0.756
COc1ccccc1NC(=O)Cn1c(=O)n(Cc2ccc(C)cc2)c(=O)c2cccnc21	-0.379	0.979
O=C(CCN1C(=O)COc2ccccc21)NCC1CCCO1 (stereo not given)	3.21	1.11
CC(C)CN(CCCNC(=O)CN1N=C(c2ccccc2)CCC1=O)CC(C)C	0.108	1.01
c1ccc(-c2nc3ccccc3[nH]2)nc1	1.53	1.21

# Reformatted: results already given.
# Values in the order: CBX7 inh z-score	CBX7 inh
Cc1c2cn[nH]c(=O)c2c(C)n1Cc1ccccc1
    0.0552	1.01
COC(=O)CSc1nnc(Cc2cc(=O)[nH]c(=O)[nH]2)n1-c1ccc(Cl)cc1
    -2.56	0.833
O=C(CSc1nnc(CNC(=O)c2cccs2)o1)Nc1cccc(Cl)c1
    2.62	1.08
O=C(c1ccccc1)N1CCN(c2nc(-c3ccccc3)c3ccccc3n2)CC1
    3.19	1.32
COc1cccc(-n2ccnc2SCC(=O)Nc2ccccc2)c1
    -0.323	0.756

# Sorted by the number under CBX7 inh z-score (high to low): 3 from the list above.
Structure | CBX7 inh z-score
O=C(CCN1C(=O)COc2ccccc21)NCC1CCCO1 (stereo not given) | 3.21
O=C(CSc1nnc(CNC(=O)c2cccs2)o1)Nc1cccc(Cl)c1 | 2.62
COc1cccc(-n2ccnc2SCC(=O)Nc2ccccc2)c1 | -0.323
